Screens (PubChem)
E coli growth – inhibitors of Escherichia coli growth | OD600, 23 h; stronger effect = lower value | OD600 absorbance (test concentration not listed) | hit rate 0.21% among 330,000;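 active = OD600 absorbance below the run mean of sample wells minus 3.6 SD, in any replicate, cut at about 0.56 in these data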;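 note: stock transfer was 300 nL into about 60 µL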
UCH37 inh – inhibitors of human deubiquitinating enzyme UCH37; purified proteasome/UCH37, Ub-AMC cleavage fluorescence; inhibition, % (no concentration beside the values); hit rate 0.33% among 330,000; AID 588478;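 active = mean of two replicates above 20%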;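 note: 0% = compound-free wells with enzyme and 100% = wells lacking proteasome; stock transfer was 100 nL into about 20 µL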
Target sequence (Q9Y5K5 whole entry, looked up): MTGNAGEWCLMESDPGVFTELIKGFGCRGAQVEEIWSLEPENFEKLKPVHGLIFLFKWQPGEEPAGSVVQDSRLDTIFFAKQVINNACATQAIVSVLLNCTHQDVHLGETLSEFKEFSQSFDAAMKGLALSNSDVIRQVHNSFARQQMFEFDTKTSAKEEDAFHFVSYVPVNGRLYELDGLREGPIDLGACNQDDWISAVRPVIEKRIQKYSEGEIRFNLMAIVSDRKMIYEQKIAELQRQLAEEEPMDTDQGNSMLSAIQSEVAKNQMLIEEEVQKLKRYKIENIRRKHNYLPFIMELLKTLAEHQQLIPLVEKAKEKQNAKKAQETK
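Test system – human UCH37 enzyme supplied as purified proteasome complex · Incubation – 30 min preincubation with enzyme, 25 min cleavage at room temperature · Detection – AMC fluorescence from Ub-AMC cleavage, excitation 355 nm, emission 460 nm · Benchmarks – no-proteasome wells (full inhibition) and compound-free wells (no inhibition)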
Beta apoptosis – beta cell apoptosis inhibition; INS-1E cytokine-induced death, ATP luminescence, 48 h; percent of positive-control rescue, neutral wells zero; protection from apoptosis, % (test concentration not listed); hit rate 0.8% among 300,000; AID 435005;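 active = all replicates at 75% or more, or half of them and the mean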;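 note: 0% = cytokine-treated negative control wells and 100% = positive control rescue; higher means more ATP so stronger rescue from cytokine killing; wells of about 40 µL received 100 nL stock; the first replicate is given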
Bfl-1 A1 inh – inhibitors of the anti-apoptotic protein A1, read as caspase activation; MEF A1-2A-BIM cells, Caspase-Glo 3/7 luminescence, 3 h; percent of clofoctol response, vehicle zero; caspase activation, % (concentration not given with the values); hit rate 0.066% among 330,000; AID 2462;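 active = over half of replicate activation scores above 10%, or exactly half above 10 with the replicate mean above 10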;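 note: wells of about 30 µL received 50 nL stock; many hits fall short of the cut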
FGF22 binding – binders of recombinant human FGF22 by thermal shift; hit rate 1.5% among 340,000; SYPRO orange fluorescence; percent of sucrose octasulfate shift, DMSO zero; calls only at 9.99 µM; Q9HCT0;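 active = melting point raised past a set limit in the mean and every replicate; three in four hits are not shown here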
Target sequence (Q9HCT0 whole entry, looked up): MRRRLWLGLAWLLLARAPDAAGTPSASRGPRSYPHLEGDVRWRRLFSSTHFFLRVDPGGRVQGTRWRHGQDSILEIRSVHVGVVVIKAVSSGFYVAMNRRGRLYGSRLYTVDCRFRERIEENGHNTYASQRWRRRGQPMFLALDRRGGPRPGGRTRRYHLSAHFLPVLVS
AF4-AF9 inh – blocks AF4 peptide binding to human AF9 | P42568 | AlphaScreen, biotin-AF4 peptide binding to FLAG-AF9 | inhibition, % at 10 µM | hit rate 0.47% among 350,000 | AID 651704;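 active = every replicate reaching a set inhibition limit, whatever the replicate mean, cut at about 25% in these data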;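 note: 0% = plate neutral control median and 100% = total signal loss; the record names both 10 and 1 µM as test concentration; the first replicate is given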
Target sequence (P42568 whole entry, looked up): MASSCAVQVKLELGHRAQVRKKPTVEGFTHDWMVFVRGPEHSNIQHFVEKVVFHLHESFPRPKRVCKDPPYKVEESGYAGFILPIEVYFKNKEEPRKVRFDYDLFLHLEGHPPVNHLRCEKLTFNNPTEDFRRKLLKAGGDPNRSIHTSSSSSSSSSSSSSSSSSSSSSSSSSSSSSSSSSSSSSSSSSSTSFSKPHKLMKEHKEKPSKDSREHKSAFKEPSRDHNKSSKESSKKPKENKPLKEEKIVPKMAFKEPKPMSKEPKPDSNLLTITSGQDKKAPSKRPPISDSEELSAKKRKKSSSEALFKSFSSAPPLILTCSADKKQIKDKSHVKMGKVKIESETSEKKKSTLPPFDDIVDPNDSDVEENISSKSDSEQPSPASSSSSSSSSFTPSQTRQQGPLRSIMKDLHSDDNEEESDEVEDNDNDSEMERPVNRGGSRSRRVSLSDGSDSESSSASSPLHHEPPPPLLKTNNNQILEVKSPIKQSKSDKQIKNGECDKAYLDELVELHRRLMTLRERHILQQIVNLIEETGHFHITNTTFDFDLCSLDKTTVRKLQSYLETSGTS
T cruzi inh – blocks replication of Trypanosoma cruzi; T. cruzi beta-gal in NIH3T3, luminescence, 90 h; inhibition, % (test concentration not listed); hit rate 1.4% among 300,000; AID 1885;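 active = mean inhibition across valid replicates above about 55%, limit read from the data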;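 note: signal also drops with host cell toxicity which is not excluded here; 0% = plate median of DMSO wells and 100% = zero luminescence signal; higher percent means less beta-gal luminescence so fewer parasites; stock transfer was 50 nL into about 50 µL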
rRNA inh HTS – inhibitors of bacterial rRNA selective over humanized ribosomes | E. coli WT GFP vs humanized-ribosome RFP mutants, fluorescence, 24 h; stronger effect = lower value; DMSO median 0, no signal -100 | GFP signal change (wild-type ribosome), % (test concentration not listed) | hit rate 1.6% among 350,000 | AID 720706;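 active = significant combined selectivity score with lowered wild-type GFP, culture density cut under 30%, mutant RFP and density less affected; inactive = any of these conditions unmet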; note: one replicate is shown; some compounds called inactive have numbers as strong as hits
rRNA inh HTS OD600 – further read-out of rRNA inh HTS, marked with its call; OD600 change, %; measured here: OD600 growth;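 optical density of the mix in the first replicate; 0 = DMSO median and -100 = no signal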
rRNA inh HTS RFP – further read-out of rRNA inh HTS, marked with its call; RFP signal change, %; measured here: RFP humanized mutant strains;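 first replicate; 0 = DMSO median and -100 = no signal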
Starred values were filed as active, the others as inactive; i = inactive; nt = no result given; + = active, no number. An excerpt. The share of hits here may be higher or lower than overall.

Compound	E coli growth	UCH37 inh	Beta apoptosis	Bfl-1 A1 inh	FGF22 binding	AF4-AF9 inh	T cruzi inh	rRNA inh HTS	rRNA inh HTS OD600	rRNA inh HTS RFP
O=C(Nc1ccccc1)Nc1ccc2ccccc2c1	0.71	0.7	3	-3.5	i	-2.1	-4	4	11	9.0
O=C(N[C@@H](Cc1ccccc1)C(=O)O)c1cccnc1	0.73	3.3	-1	-0.2	i	-1.0	-6	6	7	0.9
O=C(COC(=O)c1cc(-c2cccs2)nn1-c1ccccc1)Nc1cccc([N+](=O)[O-])c1	0.78	4.8	-9	0.2	i	-2.1	-8	5	5	0.0
CCN(C(=O)COC(=O)CCC1CCCC1)c1c(N)n(Cc2ccccc2)c(=O)[nH]c1=O	0.67	-0.3	nt	nt	i	0.4	nt	8	5	0.7
O=S(=O)(N[C@@H]1C[C@H]2CC[C@@H]1C2)c1cccs1	0.69	4.8	-11	1.4	nt	nt	6	nt	nt	nt
Cc1[nH]c(=O)[nH]c(=O)c1S(=O)(=O)N1CCCCC1	0.66	0.3	4	-0.3	i	0.9	-10	5	13	-2.0
CC1(C)Oc2ccc3ccc(=O)oc3c2/C(=C/NCCO)C1=O	0.75	7.7	-2	0.8	nt	nt	5	nt	nt	nt
C=C1CCN([C@@H](CC(C)C)C(=O)Nc2ccc(OC)cc2)S(=O)(=O)c2ccccc21	nt	-1.1	2	0.5	i	nt	-1	-12	-26	-7.2
CCOc1ccc(/C=C/C(=O)N(CC)CC(=O)Nc2ccc3c(c2)OCCO3)cc1OCC	0.72	-17	2	-0.6	i	0.1	8	2	2	0.5
CN(C)CCCCCNCCCNC(=O)/C=N\O	nt	nt	nt	0.0	i	6.5	-6	12	4	-1.4
Cc1ccc(NC(=O)c2oc3ccccc3c2COC(C)C)cc1S(=O)(=O)N1CCOCC1	0.66	1.9	5	-0.1	i	-1.6	nt	-5	18	2.8
O=C(CSc1ncnc2c1nnn2-c1ccc(F)cc1)NCc1ccco1	0.75	2.0	-11	0.7	nt	nt	16	nt	nt	nt
O=C(c1ccco1)N1CCN(C2CC(=O)N(c3ccc(F)c(Cl)c3)C2=O)CC1 (centres undefined)	0.67	-0.1	-5	0.1	i	-8.3	-24	2	14	2.4
CCOC(=O)c1cc(-c2ccc(C)o2)nn1CCC#N	0.67	-0.8	-2	0.3	nt	nt	-8	nt	nt	nt
CCOc1ccc(Br)cc1-c1noc(-c2cccs2)n1	0.75	0.7	1	0.0	nt	nt	9	nt	nt	nt
Cc1[nH]c2ccccc2c1CCN(Cc1cccnc1)C(=S)Nc1ccc(F)cc1	0.74	8.3	-6	-0.5	i	5.9	41	-14	-38	-4.7
CCC1(CC)C(=O)C(C)(C)C(=O)OC1c1ccccn1 (centres undefined)	0.69	3.5	nt	0.6	nt	nt	-18	nt	nt	nt
O=C(Nc1cccc([N+](=O)[O-])c1)C1C2CC/C=C\CCC21 (centres undefined)	0.69	1.8	0	-0.4	i	-5.5	7	13	0	1.9
O=C(CN1CCN(c2ccccn2)CC1)N1c2ccccc2CCc2ccccc21	0.68	-3.0	-1	-0.5	nt	nt	10	nt	nt	nt
Cc1cc2cc(CN(CC3CCCO3)C(=O)c3cnccn3)c(=O)[nH]c2cc1C (centres undefined)	0.78	-3.5	-11	-0.1	nt	nt	1	nt	nt	nt
CCOc1cc2c(cc1OCC)C(C(=O)O)C(c1ccc(OC)c(O)c1)N(C)C2=O (centres undefined)	0.78	3.2	-1	-1.0	nt	nt	-8	nt	nt	nt
NC(=O)c1cc(S(=O)(=O)Nc2ccc(OC(F)(F)F)cc2)cs1	0.66	8.7	1	0.6	i	-2.4	-6	6	-6	2.6
CCOCCCNC(=O)/C(C#N)=C/c1ccc(-c2ccc(S(=O)(=O)N3CCOCC3)cc2)o1	0.74	-27	-5	-0.5	nt	nt	-3	nt	nt	nt
CCC(C(=O)Nc1nc(C)cs1)c1ccccc1 (centres undefined)	0.72	5.7	4	0.4	nt	nt	7	nt	nt	nt
COc1ccc([N+](=O)[O-])cc1NC(=O)c1cn(-c2ccc(Cl)cc2)c(=O)c2ccccc12	0.67	5.4	6	-0.2	i	-4.9	4	15	11	-4.7
CC(C)/C(=N/Nc1ccccc1[N+](=O)[O-])c1ccccc1	nt	nt	-1	-0.1	nt	14	6	11	1	-4.1
CC(=O)Nc1ccc(NC(=O)CSc2ccccn2)cc1	0.7	3.9	2	0.0	i	5.4	-29	-4	-6	-0.7
COCCNC(=O)/C(C#N)=C/c1nc(N(C)C)n(-c2ccc(F)cc2)c1Cl	0.71	4.1	2	1.1	i	0.7	6	24	16	2.6
Cc1c(C(=S)Nc2ccccc2)cnn1-c1ccc([N+](=O)[O-])cc1	0.67	5.4	3	-0.4	nt	nt	3	nt	nt	nt
CCN(CC)CCCCCCCCOC(=O)c1cc(OC)c(OC)c(OC)c1	0.68	1.5	6	0.1	i	-13	nt	nt	nt	nt
COc1ccc(NC(=O)CCSc2ccc3ccccc3n2)cc1	0.69	6.1	2	-1.0	nt	nt	-2	nt	nt	nt
CCOc1ccc(N(C(=O)Nc2ccccc2)C2=NCCC2)cc1	0.66	5.6	-7	-3.3	nt	nt	-5	nt	nt	nt
O=C(c1ccco1)N1CCN(Cc2nc3ccccc3[nH]2)CC1	0.71	2.2	-2	-0.9	nt	-13	nt	7	11	2.1
CN(C)S(=O)(=O)c1cccc(NC(=O)c2cc(-c3cccs3)nc3ccccc23)c1	0.69	-71	13	0.3	i	1.4	18	3	14	5.6
CCCCCn1c(CCNC(=O)CCC)nc2ccccc21	0.6	0.1	-4	1.3	i	-2.2	-5	2	0	-1.3
CN1C(=O)CC(C(=O)O)SC1=Nc1cccc(C(F)(F)F)c1 (centres undefined)	0.71	-0.5	nt	0.2	nt	nt	-6	nt	nt	nt
Cn1nc(C(C)(C)C)c([N+](=O)[O-])c1C(=O)NC(C)(C)C	0.69	2.6	-7	-0.6	nt	nt	-4	nt	nt	nt
c1ccc(-c2nc3ccccc3nc2N2CCOCC2)cc1	0.77	2.4	nt	-0.2	nt	nt	-6	nt	nt	nt
O=C(Nc1ccc(S(=O)(=O)NCCc2ccccc2)cc1)c1ccncc1	0.68	2.8	6	-0.2	i	2.8	-2	-21	-8	-1.8
Cc1ccc(N2CC(C(=O)Nc3cccnc3)CC2=O)cc1 (centres undefined)	0.72	1.0	2	-0.7	nt	nt	-14	nt	nt	nt
Cc1ccc(NC(=O)CN(c2cc(C)cc(C)c2)S(=O)(=O)c2c(C)noc2C)nc1	0.66	3.7	nt	0.9	i	5.1	-7	-10	-23	-5.8
O=C(O)c1cccc(S(=O)(=O)Nc2ccc(O)cc2Sc2nc3ccccc3s2)c1	0.68	4.3	-2	0.3	+	11	-13	-7	-3	0.3
C/C(=N\NC(=O)c1nnn(-c2nonc2N)c1CN1CCCCCC1)c1ccc(Br)cc1	nt	nt	2	-0.2	i	2.0	-9	5	10	1.8
COc1ccc([C@@H]2[C@@H]3C(=O)N(C(C)(C)C)C(=O)[C@@H]3[C@]3(C)C(=O)N(c4ccccc4)C(=O)N23)cc1	nt	0.4	-1	-0.3	i	0.0	7	5	0	-5.1
CCn1c(SCC(=O)N2CCCc3ccccc32)nnc1-c1cccs1	0.69	6.7	9	0.7	nt	nt	11	-7	-15	0.8
C=CCOc1ccc(C2C(C(=O)c3ccc(C)o3)=C(O)C(=O)N2Cc2cccnc2)cc1 (centres undefined)	0.7	5.2	4	-0.7	i	2.3	-12	0	3	1.7
NC(=O)c1ccc[n+](Cc2ccc(-c3ccccc3)cc2)c1	0.64	2.8	-12	2.1	i	3.8	-9	6	6	1.9
CN(C(=O)CCN1C(=O)S/C(=C\c2ccccc2)C1=O)C1CCS(=O)(=O)C1 (centres undefined)	0.71	7.0	-5	0.7	i	-0.8	-29	22	10	0.8
COC(=O)c1cc(S(=O)(=O)Nc2cccc(OC)c2)cn1C	0.71	8.5	2	0.6	i	-3.7	-10	0	0	-5.8
COc1ccc(NC(=O)C2CC(=O)N(c3ccccc3Cl)C2)c(OC)c1 (centres undefined)	0.55	3.6	-4	-0.2	i	5.0	3	3	2	-1.2

More entries
Compound	E coli growth	UCH37 inh	Beta apoptosis	Bfl-1 A1 inh	FGF22 binding	AF4-AF9 inh	T cruzi inh	rRNA inh HTS	rRNA inh HTS OD600	rRNA inh HTS RFP
O=C(Cn1c(=O)cnc2ccccc21)Nc1cc(Cl)ccc1N1CCOCC1	0.7	4.1	-8	-0.3	i	-6.8	nt	-5	-7	-2.5
CCN(CC(=O)Nc1ccc(NC(C)=O)cc1)C(=O)c1cccc(Oc2ccccc2)c1	0.64	3.3	2	0.3	nt	0.4	-3	3	-8	1.5
COc1ccc(-c2cc(C(=O)Nc3ccc(S(=O)(=O)Nc4ncccn4)cc3)c3ccccc3n2)cc1	0.69	-54	-3	0.4	i	-1.6	-1	11	8	3.6
COc1ccccc1C(=O)Nc1cccc(Oc2c(F)c(F)c(F)c(F)c2F)c1	0.64	5.2	-1	-5.5	i	1.4	10	-9	-15	-3.4
O=C(Nc1ccccn1)c1ccco1	0.71	3.8	-3	-1.4	i	4.3	-11	17	11	0.6
CC(C)(C)OC(=O)N1CCCC(C(=O)Nc2ccc(C(=O)N3CCOCC3)cc2)C1 (centres undefined)	0.63	2.2	0	-0.1	i	-1.1	nt	7	5	-4.7
Cc1ccc(C(=O)COC(=O)CN2C(=O)C3CC=CCC3C2=O)cc1[N+](=O)[O-] (centres undefined)	0.75	2.9	-4	-0.1	i	-0.4	4	5	5	3.1
Cc1cc(NC(=O)c2cc3n(n2)C(C(F)(F)F)CC(c2ccco2)N3)n(-c2ccccc2)n1 (centres undefined)	0.69	3.3	0	0.5	nt	nt	25	nt	nt	nt
Cc1onc(-c2c(Cl)cccc2Cl)c1C(=O)Nc1ccc(N2CCOCC2)cc1	0.7	3.0	nt	-6.6	i	nt	-9	-6	0	1.4
Cc1ccccc1NS(=O)(=O)c1ccc(C(=O)N2CCCC2)cc1	nt	nt	2	-0.2	i	0.1	-6	2	3	-0.7

Arranged by count of non-hydrogen atoms (highest first): 3 of the compounds above
Compound	E coli growth	UCH37 inh	Beta apoptosis	Bfl-1 A1 inh	FGF22 binding	AF4-AF9 inh	T cruzi inh	rRNA inh HTS	rRNA inh HTS OD600	rRNA inh HTS RFP
COc1ccc(-c2cc(C(=O)Nc3ccc(S(=O)(=O)Nc4ncccn4)cc3)c3ccccc3n2)cc1	0.69	-54	-3	0.4	i	-1.6	-1	11	8	3.6
O=C(Cn1c(=O)cnc2ccccc21)Nc1cc(Cl)ccc1N1CCOCC1	0.7	4.1	-8	-0.3	i	-6.8	nt	-5	-7	-2.5
O=C(Nc1ccccn1)c1ccco1	0.71	3.8	-3	-1.4	i	4.3	-11	17	11	0.6
